# Mtb bLac sens – beta-lactam sensitization of Mtb H37Rv; hit rate 0.27% among 330,000; inhibition, % at 25 µM; M. tuberculosis H37Rv growth with meropenem, percent inhibition; hits of this screen are not shown here; AID 434955;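 active = about 74% or more and at least 40 points above the plate without the antibiotic, then above 30% in a dose series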;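 also: growth measured after seven days incubation then overnight dye step; 0% = bacteria only wells and 100% = bacteria with antibiotic; twin plates without the antibiotic show which effects depend on it; some results filed as inactive read as strong as hits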
# Active calls of the source: *; & = joins results of further samples. Some of the compounds tested (hit frequency here may not be typical).
SMILES,Mtb bLac sens
CC1Cc2ccccc2N1CC(=O)N(C)c1c(N)n(Cc2ccccc2)c(=O)[nH]c1=O (stereo not drawn),1
CCN(Cc1ccncc1)C(=O)c1ccc(C)c(S(=O)(=O)N2CCCCC2)c1,-7
O=c1c2cc(F)ccc2sn1-c1ccccc1,99
CCc1ccc(CN(C)CC(=O)Nc2ccc(S(=O)(=O)N3CCOCC3)cc2)cc1,-6
CC(C)(C)c1o[nH]c(=O)c1CC(N)C(=O)O (stereo not drawn),-3
O=C(NCc1ccccc1CN1CCCC1)c1cccc(N2CCCC2=O)c1,3
CC(=O)OC[C@]12CC[C@H]3[C@@](C)(CC[C@H]4C(C)(C)CCC[C@]34C)[C@@H]1C[C@H](C1=CC(=O)O[C@@H]1OC(C)=O)O2,3
Cc1nn(-c2ccccc2)c(C)c1C(=O)N1CCN(S(=O)(=O)c2ccccc2)CC1,1
CCOC(=O)C1CCN(C(=O)COC(=O)/C=C/c2cccc(OC)c2OC)CC1,-5
CSc1ncccc1C(=O)N(C)CC(=O)Nc1ccc(Cl)cc1,-8
NS(=O)(=O)c1cccc(C(=O)OCC(=O)NC2CCCc3ccccc32)c1 (stereo not drawn),-1
Cn1nc(C(=O)Nc2cc(Cl)ccc2N2CCCC2)c2ccccc2c1=O,3
CC(C)CCCC(C)NC(=O)c1cc(S(=O)(=O)N2CCCCC2)ccc1N1CCOCC1 (stereo not drawn),-1
COc1ccc([C@H]2CC(=O)C=C(c3cccc(F)c3OC)C2)cc1,10
O=C(CC(=O)N/N=C/c1c(Cl)cccc1Cl)NCc1cccnc1,-9
CC(=O)c1cccc(NC(=O)COc2cc(C)on2)c1,-6
C[C@H](CO)N1C[C@H](C)[C@@H](CN(C)S(C)(=O)=O)Oc2ccc(NS(=O)(=O)c3ccccc3)cc2C1=O,1
CC(Oc1ccccc1)C(=O)Nc1nc(-c2ccncc2)cs1 (stereo not drawn),1
O=C(NCc1ccccc1)c1cccc2c1C(=O)c1ccc(/C=C/c3ccccc3)cc1S2(=O)=O,-3
Cc1ccc(NC(=O)CN(C)C(=O)COc2ncnc3ccc(Br)cc23)cc1,-7
OCC[C@H]1C[C@@H](O)[C@H](O)[C@]2(OCCc3ccccc32)O1,-8
CCOC(=O)N1CCN(C(=O)c2ccc(S(=O)(=O)Nc3ccccc3)cc2)CC1,-2
Cc1ccc2c(c1)C(=O)N1[C@H]3c4cc(Cl)ccc4OC[C@@H]3[C@H](c3ccccc3)[C@]1(C)C(=O)N2,3
O=C(c1cccc(S(=O)(=O)N2CCCCC2)c1)N1CCN(Cc2ccccc2)CC1,-1
CN1CC[C@]23c4c5ccc(OC6OC(C(=O)O)[C@@H](O)C(O)[C@H]6O)c4OC2C(O)C=CC3[C@H]1C5 (stereo partly drawn),-8
COc1ccc(-c2nn(-c3ccccc3)cc2C(=O)NC2CC2)cc1,-8
CC(C)(C)OC(=O)N[C@@H](C(=O)OC(C)(C)C)c1ccc(Br)cc1,-2
O=S(=O)(NCc1ccccc1)[C@@H]1CC2C=CC1C2 (stereo partly drawn),1
O=S(=O)(NC1=NCCCCC1)c1ccc(Cl)cc1Cl,0
NC(=O)c1ccccc1NC(=O)CSc1nc2c(c(=O)[nH]1)CCCC2,-10
CCCSc1ccc([C@@H]2[C@H]3C(=O)N(C)C(=O)[C@H]3[C@]3(C(=O)OC)CCCN23)cc1OC,-8
COc1ccc(NC(=O)Nc2cccc3c2O[C@H](CN(C)C(=O)Nc2ccc(OC)cc2)[C@@H](C)CN([C@H](C)CO)C3=O)cc1,0
CC1CN(S(=O)(=O)c2cccc(C(F)(F)F)c2)CN1C(=O)N1CCOCC1 (stereo not drawn),-1
C=CC[C@@H](Cc1ccc(F)cc1)C(=O)OC[C@@H]1CCCN1C(=O)[C@H](CC=C)CC(=O)N[C@H](CO)Cc1ccccc1,-4
CSCCC(NC(=O)c1ccccc1Cl)C(=O)N1CC(C)OC(C)C1 (stereo not drawn),-7
O=C(c1ccc(F)cc1)N1CCC(C(=O)N2CCN(c3ncccn3)CC2)CC1,-3
C#CCOCCOCCOCCNc1nc(N2CCN(C(=O)Cn3cc(CCCCN)nn3)CC2)nc(N2CCN(C(=O)[C@H]([C@@H](C)CC)n3cc(CCCN=C(N)N)nn3)CC2)n1,-6
Cc1ccc(S(=O)(=O)N(C)c2ccc(OC(=O)c3cccs3)cc2)cc1,85
CCCCn1c(N)c(N(CC(C)C)C(=O)c2ccc([N+](=O)[O-])o2)c(=O)[nH]c1=O,-13
CC1CCCN(C(=O)COC(=O)CSc2ccc(C(N)=O)cc2[N+](=O)[O-])C1 (stereo not drawn),1
CCC(CC)CN1C(N(C)C)=NC[C@@H]1CC(C)C,-5
Cc1cccc(N2CCN(C(=O)c3ccccc3SCC(=O)N3CCCC3)CC2)c1C,-6
Nc1cc(=O)[nH]c(SCC(=O)Nc2ccc(N3CCCCC3)cc2)n1,5
Cc1ccc(S(=O)(=O)N[C@H](C(=O)OCC(=O)NC(=O)NCc2ccco2)C(C)C)cc1,-14
O=C(C[C@H]1C/C=C\C[C@H](NC(=O)OCC2c3ccccc3-c3ccccc32)C(=O)OC[C@H]2CCCN2C1=O)NCCO,-2
Cc1cc(C)n2nc(C(=O)OCC(=O)N(C)CC(=O)Nc3ccccc3Cl)nc2n1,5
COc1cc(C[C@@H]2C(=O)OC[C@H]2Cc2ccc(OC)c(OC)c2)ccc1O,1
N#Cc1ccc(NC(=O)CN2C(=O)NC3(CCCCCCC3)C2=O)cc1Cl,-7
COc1ccc(OC)c(NC(=O)CN2C(=O)NC(C)(c3ccc4c(c3)OCCO4)C2=O)c1 (stereo not drawn),-6
CCn1c(=O)c(C(=O)NNC(=O)Cc2ccccc2)c(O)c2ccccc21,-3
CCN(C(=O)c1ccc(=O)n(C)n1)c1c(N)n(Cc2ccccc2)c(=O)[nH]c1=O,-2
CC(OC(=O)/C=C/c1cccc(Cl)c1)C(=O)NC1CCCCC1C (stereo not drawn),-7
Cc1cccc(C(=O)NCc2ccco2)c1,-8
CCN(CC)c1ccc(NC(=O)COC(=O)CCC(=O)c2cccs2)cc1,1
C[C@H](CO)N1C[C@H](C)[C@@H](CN(C)C(=O)Nc2ccc3c(c2)OCO3)Oc2c(NS(=O)(=O)c3ccc(F)cc3)cccc2C1=O,-6
Cc1ccc(-n2nnnc2SCC(=O)N2CCNC2=O)cc1C,-6
CCCCCCc1cc2cc(/C(N)=N/NC(=O)c3ccncc3)c(=O)oc2cc1O,98
COc1ccc([C@H]2CC(=O)C=C(c3ccc(NC(C)=O)cc3)C2)cc1OC,5
CCCC(=O)Nc1ccc(C(=O)COC(=O)c2cc(C)oc2C)cc1,3
CC(C)(C)CC(=O)Nc1ccc(S(=O)(=O)NC2=NCCCCC2)cc1,-8
# More records
SMILES,Mtb bLac sens
CN(C)S(=O)(=O)c1cccc(C(=O)Nc2ccc(C(=O)Nc3cccc(S(N)(=O)=O)c3)cc2)c1,0
CC(C)(C)N(Cc1ccccc1)C(=O)COC(=O)C1CC1,28
COc1cc(C2Nc3cc(C)c(C)cc3NC3=C2C(=O)CC(C)(C)C3)ccc1OC(C)=O (stereo not drawn),-7
C[C@]12c3[nH]c4ccccc4c3CCN1C(=O)C(CC(=O)NCc1cccc(C(F)(F)F)c1)C[C@@H]2C(=O)N1CCCCC1 (stereo partly drawn),-4
COc1cc(NC(=O)CN2C(=O)c3ccccc3S2(=O)=O)cc(OC)c1,1
CCCN(CC(=O)Nc1ccccc1OC)C(=O)c1cc(-c2ccccc2)nn1-c1ccccc1,9
O=C(CNC(=O)c1ccc(OC(F)F)cc1)NCC1(N2CCOCC2)CCCCC1,-5
Cc1ncc[nH]1,6
COc1ccc(NS(=O)(=O)c2cc(N)ccc2N2CCCCC2)cc1,20
C[C@]12CC[C@H](O)CC1=CCC1C2CC[C@@]2(C)C1CCC21OCCO1 (stereo partly drawn),0
Cc1ccc(S(=O)(=O)Nc2ncnc3ccccc23)cc1,-5
COc1ccc(NC(=O)CN(C)CC(=O)N(CC(C)C)c2c(N)n(CC(C)C)c(=O)[nH]c2=O)cc1,-6

# In a second layout: 18 of the compounds above.
Compound | Mtb bLac sens
CC(OC(=O)/C=C/c1cccc(Cl)c1)C(=O)NC1CCCCC1C (stereo not drawn) | -7
Cc1cccc(C(=O)NCc2ccco2)c1 | -8
CCN(CC)c1ccc(NC(=O)COC(=O)CCC(=O)c2cccs2)cc1 | 1
C[C@H](CO)N1C[C@H](C)[C@@H](CN(C)C(=O)Nc2ccc3c(c2)OCO3)Oc2c(NS(=O)(=O)c3ccc(F)cc3)cccc2C1=O | -6
Cc1ccc(-n2nnnc2SCC(=O)N2CCNC2=O)cc1C | -6
CCCCCCc1cc2cc(/C(N)=N/NC(=O)c3ccncc3)c(=O)oc2cc1O | 98
COc1ccc([C@H]2CC(=O)C=C(c3ccc(NC(C)=O)cc3)C2)cc1OC | 5
CCCC(=O)Nc1ccc(C(=O)COC(=O)c2cc(C)oc2C)cc1 | 3
CC(C)(C)CC(=O)Nc1ccc(S(=O)(=O)NC2=NCCCCC2)cc1 | -8
CN(C)S(=O)(=O)c1cccc(C(=O)Nc2ccc(C(=O)Nc3cccc(S(N)(=O)=O)c3)cc2)c1 | 0
CC(C)(C)N(Cc1ccccc1)C(=O)COC(=O)C1CC1 | 28
COc1cc(C2Nc3cc(C)c(C)cc3NC3=C2C(=O)CC(C)(C)C3)ccc1OC(C)=O (stereo not drawn) | -7
C[C@]12c3[nH]c4ccccc4c3CCN1C(=O)C(CC(=O)NCc1cccc(C(F)(F)F)c1)C[C@@H]2C(=O)N1CCCCC1 (stereo partly drawn) | -4
COc1cc(NC(=O)CN2C(=O)c3ccccc3S2(=O)=O)cc(OC)c1 | 1
CCCN(CC(=O)Nc1ccccc1OC)C(=O)c1cc(-c2ccccc2)nn1-c1ccccc1 | 9
O=C(CNC(=O)c1ccc(OC(F)F)cc1)NCC1(N2CCOCC2)CCCCC1 | -5
Cc1ncc[nH]1 | 6
COc1ccc(NS(=O)(=O)c2cc(N)ccc2N2CCCCC2)cc1 | 20

# (continued)
SMILES,Mtb bLac sens
Cc1cccc(NC(=O)COC(=O)[C@@H]2CCCN2C(=O)c2cccs2)c1,-3
CC(=O)N1CCN(S(=O)(=O)c2cccc(C(=O)NNC(=O)COc3c(C)cccc3C)c2)CC1,-4
Cc1ccc(N2CC(C(=O)Nc3ccc4c(c3)OCO4)CC2=O)cc1C (stereo not drawn),-1
C[C@@H]1C[C@H]2[C@@H]3C[C@H](F)C4=CC(=O)C=C[C@]4(C)[C@@]3(Cl)[C@@H](O)C[C@]2(C)[C@H]1C(=O)COC(=O)C(C)(C)C,6
CC(C)[C@H](NC(=O)c1ccccc1)C(=O)OCC(=O)NCC1CCCO1 (stereo partly drawn),-1
O=C(NC1CCCCCC1)C1CCN(C(=O)c2ccc(Cl)cc2)CC1,-2
Cc1nn(C2CCS(=O)(=O)C2)c(C)c1CN(C)C(=O)c1ccc(S(=O)(=O)N(C)C)cc1 (stereo not drawn),-7
CC(C)N(Cc1ccccc1)C(=O)COC(=O)c1cnc(Cl)c(Cl)c1,20
Cc1ccc(S(=O)(=O)CCC(=O)Nc2sccc2C(N)=O)cc1,-2
COC(=O)c1cc(C)nc2c1c(C)nn2-c1ccccc1,8
COc1ccccc1/C=C/C(=O)OCC(=O)Nc1c(C)nn(-c2ccccc2)c1C,-12
COc1ccc([C@@H]2CC=C(C(=O)O)[C@H](c3ccccc3F)N2S(=O)(=O)c2ccccc2C)cc1,0
O=C(Nc1cccc(/C=C/c2ccccn2)c1)c1ccc(-n2cncn2)cc1,5
O=C(COC(=O)/C=C/c1ccc(OC(F)F)cc1)NC1CCCCCC1,6
COc1cc(C#Cc2c(-c3cncn3C)n(C)c3ccc(-c4cnc(N5CCOCC5)nc4)cc23)cc(OC)c1,99
COC(=O)C1=C(c2ccc3ccccc3c2)C[C@@H]2CC[C@H]1N2C(=O)NCc1ccc(C(F)(F)F)cc1,3
CCOC(=O)c1ccc(S(=O)(=O)NCCNCc2ccccc2)cc1,1
O=C(O)c1cccc(S(=O)(=O)Nc2ccc(N3CCCCC3)cc2)c1,-7
O=C(CCCOc1ccccc1)N1CCN(S(=O)(=O)c2cccc(F)c2)CC1,-1
COc1ccc(Cl)cc1C(=O)OCC(=O)N1CCCC(C)C1 (stereo not drawn),45
CN(C)C(=O)Oc1cc(OC(=O)N(C)C)cc(C(O)CNC(C)(C)C)c1 (stereo not drawn),-6&1
O=C1C=C(c2ccc3ncccc3c2)C[C@@H](c2ccc3c(c2)OCO3)C1,69
CCCCC(CC)C(=O)O (stereo not drawn),-3
O=C(COC(=O)CNC(=O)c1ccccc1Cl)NC1CCCC1,-10
CC(=O)c1ccc(S(=O)(=O)Nc2ccc(-n3cnnn3)cc2)cc1,2
CCOC(=O)c1ccc(-n2cccc2/C=C2\NC(=O)NC2=O)cc1,29
CCN(C(=O)COC(=O)CN1C(=O)c2ccccc2C1=O)c1ccccc1,0
O=C(NCc1ccccn1)c1ccc(Cl)c(S(=O)(=O)NCc2ccccc2)c1,3
Cc1noc(C)c1C(=O)NCC1COc2ccccc2O1 (stereo not drawn),5
CC(C)NC(=O)N(C)C[C@H]1Oc2c(NC(=O)C3CCCCC3)cccc2C(=O)N([C@H](C)CO)C[C@@H]1C,2
NC(=O)c1ccc(-c2nnn(CC(=O)N(C3CCCC3)C3CCS(=O)(=O)C3)n2)cc1 (stereo not drawn),-7
O=C(COC(=O)c1ccco1)Nc1cc(S(=O)(=O)N2CCCCC2)ccc1Cl,-1
O=C(NC1CCCCC1)C(c1c(F)cccc1Cl)N(C(=O)c1csnn1)C1CC1 (stereo not drawn),-7
CCOc1ccc(NS(=O)(=O)c2cccc(C(=O)N(C)Cc3ccco3)c2)cc1,-7
O=C1C(Cl)=C(N2CCCC2)C(=O)N1c1ccccc1F,2
COc1cc(SC)ccc1C(=O)N1CCN(S(=O)(=O)/C=C/c2ccccc2)CC1,-5
CC(OC(=O)CN1C(=O)c2ccccc2C1=O)C(=O)NC1(C#N)CCCCC1 (stereo not drawn),-4
COc1cccc(NC(=O)CN(C)C(=O)CSc2nc(C)cc(C)n2)c1,8
O=C(NCCc1ccc(Cl)cc1Cl)C1=CC=CN2CCS(=O)(=O)N=C12,-3

# Source: PubChem BioAssay (Southern Research Specialized Biocontainment Screening Center)
